Pyk2 oligo antag = antagonists of human Pyk2 oligomerization; Q14289; Q293 cells, Pyk2 FERM NanoBiT luminescence; active compounds read low; z-score (the deposit names both 25 µM and 10 µM); 99,000 compounds, 0.83% hits;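 active means Z-score of -3 or lower, scaled per plate to the spread of control and sample wells; inactive means z-score above -3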;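 further: negative z-score means lost luminescence so less FERM oligomerization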
PostGolgi yeast = growth inhibition of a yeast mutant, post-Golgi transport screen | 98,000 compounds, 0.9% hits | AID 739 | post-Golgi transport phenotypic cell assay | inhibition, % at 10 µM; in the data active means inhibition above about 30%;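 further: yeast cells grown in 1536-well plates; yeast grown about 18 h at 30C before absorbance read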
E coli WT exp = growth inhibitors of E. coli BW25113 wild type | OD600 absorbance | growth inhibition, % at 100 µM | 98,000 compounds, 0.15% hits;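 active means growth inhibition above about 50% at one test dose, limit read from the data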;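 further: growth measured after 20 h incubation at 37 °C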
EphB4 ephrin blk = blocks human EphB4 binding to ephrin-B2; inhibition, % at 7 µM; EphB4 LBD / TNYL-RAW-Alexa532 peptide, fluorescence polarization; 97,000 compounds, 0.15% hits; P54760; AID 720;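 active means inhibition above the screen-wide mean inhibition plus 3 SD, cut at about 15% in these data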;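 further: 0% = DMSO wells and 100% = excess unlabeled TNYL-RAW peptide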
PLAP activator = activators of human placental alkaline phosphatase; activation fold at 20 µM; P05187; purified PLAP enzyme, luminescent substrate read-out; active compounds read high; 96,000 compounds, 1.2% hits; AID 696; in the data active means activation fold above about 2
Target sequence (P05187 whole entry, looked up): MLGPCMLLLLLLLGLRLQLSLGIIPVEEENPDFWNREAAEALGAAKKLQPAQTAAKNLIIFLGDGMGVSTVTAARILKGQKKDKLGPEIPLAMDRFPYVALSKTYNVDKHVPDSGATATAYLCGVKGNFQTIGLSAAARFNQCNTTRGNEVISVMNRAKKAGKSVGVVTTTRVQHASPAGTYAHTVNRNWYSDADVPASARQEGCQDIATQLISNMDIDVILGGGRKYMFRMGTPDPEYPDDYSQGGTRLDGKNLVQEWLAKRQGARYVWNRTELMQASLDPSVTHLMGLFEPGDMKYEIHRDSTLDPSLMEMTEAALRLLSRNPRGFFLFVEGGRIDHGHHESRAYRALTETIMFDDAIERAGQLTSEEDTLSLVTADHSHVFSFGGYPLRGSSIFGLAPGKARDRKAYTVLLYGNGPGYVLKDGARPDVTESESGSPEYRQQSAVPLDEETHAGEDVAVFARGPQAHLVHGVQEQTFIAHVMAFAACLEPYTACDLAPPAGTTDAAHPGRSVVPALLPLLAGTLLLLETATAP
Starred values were filed as active, the others as inactive; / = not tested or not shown. A portion of the library, so the mix of outcomes need not match the whole.

entry | mol | E coli WT exp | Pyk2 oligo antag | PostGolgi yeast | PLAP activator | EphB4 ephrin blk
1 | COc1ccc(NC(=O)[C@H](COCc2ccccc2)NC(=O)OC(C)(C)C)cc1 | 4 | 0.35 | -1 | 1.1 | 7
2 | COc1ccc(-c2cnnn2-c2ccc(NC(=O)c3ccco3)cc2)cc1OC | 0 | 0.19 | 3 | 0.9 | -3
3 | COc1cc(OC)nc(Oc2ccccc2C(=O)Oc2ccc(C)cc2)n1 | -7 | -1.9 | -9 | 1 | 2
4 | Cc1nnc(N(C)C(=O)c2ccccn2)s1 | -7 | 0.95 | -5 | 1.1 | 7
5 | C=CCNC(=O)c1ccccc1Cl | 4 | 2.1 | -7 | 1.3 | 0
6 | CCc1ccc(NCCC(=O)c2ccc(Cl)cc2)cc1 | -9 | 2.1 | 1 | 1 | 1
7 | O=C1CSC(c2ccccn2)N1c1ccc2ccccc2c1 (configuration not stated) | 2 | 1.4 | -7 | 1 | -1
8 | COc1ccc2c(=O)c(-c3ccccc3)c(C)oc2c1 | 8 | 0 | 11 | 0.9 | 3
9 | COc1ccc(NC(=O)CSc2ncnc3c2cnn3CCc2ccccc2)cc1 | 2 | 0.33 | 0 | 0.9 | 0
10 | Cc1ccc(C(=O)Nc2cccc(C(=O)N3CCOCC3)c2)cc1 | -14 | -0.01 | 4 | 0.8 | -4
11 | NC(=O)C1(NC(=O)[C@@H]2CC3(CC(c4cccc(NC(=O)[C@@H]5CCC(=O)N5)c4)=NO3)CN2C(=O)Cc2ccc(Cl)cc2)CC1 (some centres not stated) | 1 | / | 1 | 1.5 | -1
12 | CCc1ccc(-c2csc(NC(=O)C3CCCO3)c2C(=O)OC(C)C)cc1 (configuration not stated) | -3 | -2.6 | -1 | 1.1 | 7
13 | Nc1nc2ccccc2nc1N1CCCC1 | 15 | -0.53 | 4 | 0.8 | 0
14 | COC(=O)N(C)c1ccccc1C(=O)N1CCOCC1 | 3 | 0 | -8 | 1.2 | 9
15 | CCCCCn1c(SCC(=O)c2ccccc2)nc2cc(C(=O)NCc3ccco3)ccc2c1=O | 1 | -0.87 | -1 | 1 | -1

Copied from above: compounds 2–15
entry | mol | E coli WT exp | Pyk2 oligo antag | PostGolgi yeast | PLAP activator | EphB4 ephrin blk
2 | COc1ccc(-c2cnnn2-c2ccc(NC(=O)c3ccco3)cc2)cc1OC | 0 | 0.19 | 3 | 0.9 | -3
3 | COc1cc(OC)nc(Oc2ccccc2C(=O)Oc2ccc(C)cc2)n1 | -7 | -1.9 | -9 | 1 | 2
4 | Cc1nnc(N(C)C(=O)c2ccccn2)s1 | -7 | 0.95 | -5 | 1.1 | 7
5 | C=CCNC(=O)c1ccccc1Cl | 4 | 2.1 | -7 | 1.3 | 0
6 | CCc1ccc(NCCC(=O)c2ccc(Cl)cc2)cc1 | -9 | 2.1 | 1 | 1 | 1
7 | O=C1CSC(c2ccccn2)N1c1ccc2ccccc2c1 (configuration not stated) | 2 | 1.4 | -7 | 1 | -1
8 | COc1ccc2c(=O)c(-c3ccccc3)c(C)oc2c1 | 8 | 0 | 11 | 0.9 | 3
9 | COc1ccc(NC(=O)CSc2ncnc3c2cnn3CCc2ccccc2)cc1 | 2 | 0.33 | 0 | 0.9 | 0
10 | Cc1ccc(C(=O)Nc2cccc(C(=O)N3CCOCC3)c2)cc1 | -14 | -0.01 | 4 | 0.8 | -4
11 | NC(=O)C1(NC(=O)[C@@H]2CC3(CC(c4cccc(NC(=O)[C@@H]5CCC(=O)N5)c4)=NO3)CN2C(=O)Cc2ccc(Cl)cc2)CC1 (some centres not stated) | 1 | / | 1 | 1.5 | -1
12 | CCc1ccc(-c2csc(NC(=O)C3CCCO3)c2C(=O)OC(C)C)cc1 (configuration not stated) | -3 | -2.6 | -1 | 1.1 | 7
13 | Nc1nc2ccccc2nc1N1CCCC1 | 15 | -0.53 | 4 | 0.8 | 0
14 | COC(=O)N(C)c1ccccc1C(=O)N1CCOCC1 | 3 | 0 | -8 | 1.2 | 9
15 | CCCCCn1c(SCC(=O)c2ccccc2)nc2cc(C(=O)NCc3ccco3)ccc2c1=O | 1 | -0.87 | -1 | 1 | -1

(continued)
entry | mol | E coli WT exp | Pyk2 oligo antag | PostGolgi yeast | PLAP activator | EphB4 ephrin blk
16 | Cc1ccc(OCCNC(=O)/C=C/c2ccc([N+](=O)[O-])cc2)cc1C | -9 | 2.3 | -6 | 1 | -8
17 | O=C(CCn1nc(-c2ccccc2)ccc1=O)NCCCN1CCCCCC1 | -2 | / | -1 | 1.3 | -1
18 | Cc1cc2ccccc2n1CCNC(=O)c1ccccc1 | -5 | 0.04 | 17 | 1.2 | -4
19 | Cc1cc(C)n(S(=O)(=O)Cc2ccccc2)n1 | 3 | -0.23 | 0 | 1 | -3
20 | CCCCCNCc1ccc(Br)cc1 | 8 | 1.1 | -3 | 0.9 | -2
21 | CC1CCN(C(=O)Nc2ccc3nsnc3c2)CC1 | 9 | -1.1 | 16 | 1 | 4
22 | CCCCCCNCc1cccc(Br)c1 | 28 | 3.9 | 26 | 1.1 | -6
23 | CCCN(/C=N/c1sc2c(c1C#N)CCCCC2)CCC | 5 | -0.74 | 9 | 1.1 | 3
24 | CCCCn1nc2cc(C(=O)NCc3ccc(C(F)(F)F)cc3C(F)(F)F)ccc2c1OCC | -1 | / | 4 | 0.9 | 1
25 | CC(=O)Nc1ccc(NCN2C(=O)C3C4CCC(C4)C3C2=O)cc1 (configuration not stated) | 1 | 0.41 | -9 | 0.9 | 4
26 | COc1ccccc1-c1c(C)oc2c(CN3CCN(CCO)CC3)c(O)ccc2c1=O | 2 | 0.11 | 13 | 1.1 | -6
27 | COc1ccc(CCNc2cc(N3CCN(C(=O)c4ccccc4F)CC3)ccc2[N+](=O)[O-])cc1OC | -12 | 1 | 10 | 1.1 | -2
28 | CCOC(=O)CN1N=C(/C=C/c2ccc(C)cc2)CCC1=O | -4 | 1.1 | 7 | 1 | -4
29 | CCOc1ccc(N=C2NC(=O)S/C2=C\c2ccc(O)cc2)cc1 | -8 | -1.8 | -10 | 0.9 | 5
30 | COc1ccccc1-n1c(SCC(=O)Nc2ccccc2F)nc2[nH]ncc2c1=O | 2 | -1.1 | -14 | 1.7 | 2
